miR-21 FLuc: raises the signal of a miR-21 reporter. HeLa miR-21 FLuc reporter, luciferase, 48 h. 340,000 tested, under 10 active. Potency, µM (doses to about 38.3 µM), without a hit: at the top dose reporter change, positive = more light; active = well fitted rising curve with a large enough effect; inconclusive = small, poorly fitted or top-dose-only effect; inactive = no such curve, though single readings can be large or run the other way;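 note: % of control where 0% means no effect; miR-21 action dims this reporter so a rising signal means less miR-21 action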
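HeLa miR-21-FLuc reporter line, endogenous miR-21; 2000 cells/well in DMEM/10% FBS; compound titration up to ~40uM final, 48 h, 37 degree Celsius; luciferase detection reagent, 15 min lysis, CCD luminescence.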
Rango complex inh: prevents formation of the Rango-importin beta complex; 340,000 compounds, 0.031% hits; Potency, µM (titrated, usually from 92.2 µM), for inactives: top-dose inhibition of complex formation; Rango CFP/YFP FRET sensor + importin beta, 45 min; active = rising FRET ratio curve, often small or poorly fitted; inconclusive = mostly compound fluorescence or quenching in the first reads; inactive = flat curves in all reads;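 note: potency is the fitted concentration of half-maximal effect; 0% = DMSO wells and 100% = buffer wells lacking importin beta; nearly all actives have a fitted effect of over 15% in size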
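FRET biosensor Rango (snurportin 1 IBB between N-terminal EYFP and C-terminal Cerulean), 50 nM in PBS/1 mM DTT/0.02% Tween-20/0.1% BSA, preincubated 5 min RT with compound; 0.125 microM importin beta added, 45 min RT, CFP/YFP FRET ratio read.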
GLA inh pH 4.5: inhibitors of human alpha-galactosidase A at pH 4.5; P06280; activity change, negative = inhibition, % at 105 µM; purified enzyme, 4-MU-alpha-Gal fluorescence, pH 4.5; 230,000 tested, under 10 active; inconclusive = small, poorly fitted or top-dose-only inhibition, or a rising curve; inactive = flat fitted curve, though single readings scatter; no compound was filed as active;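 note: 0% = full activity with enzyme and -100% = basal without enzyme; dose as in the result columns while the protocol names 77 µM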
Target sequence (P06280 whole entry, looked up): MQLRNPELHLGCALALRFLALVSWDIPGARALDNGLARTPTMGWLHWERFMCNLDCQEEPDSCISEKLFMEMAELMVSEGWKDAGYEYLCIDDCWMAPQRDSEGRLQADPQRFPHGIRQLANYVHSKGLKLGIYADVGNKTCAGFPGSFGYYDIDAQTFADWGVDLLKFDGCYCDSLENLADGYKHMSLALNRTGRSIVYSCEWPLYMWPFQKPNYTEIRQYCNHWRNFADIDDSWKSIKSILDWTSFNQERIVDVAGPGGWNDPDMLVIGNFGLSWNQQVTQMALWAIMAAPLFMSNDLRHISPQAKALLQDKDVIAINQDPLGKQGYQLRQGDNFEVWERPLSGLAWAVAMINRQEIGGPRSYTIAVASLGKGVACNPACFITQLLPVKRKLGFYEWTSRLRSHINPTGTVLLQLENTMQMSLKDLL
Rango dissoc inh: prevents RanGTP from dissociating the Rango-importin beta complex; O95149+P62826; 340,000 compounds, 0.071% hits; Potency, µM (titrated, usually from 46.1 µM), without a hit: top-dose activity change, negative = inhibition; AID 540253; Biochemical FRET Rango-importin beta, RanGTP-induced dissociation; active means falling FRET ratio curve, often poorly fitted, with flat reads before Ran was added; inconclusive means other falling curves, or compound fluorescence or quenching; inactive means flat or rising ratio curve;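 note: potency is the fitted concentration of half-maximal effect; % of control where 0% means no effect; nearly all actives have a fitted effect of over 45% in size; -100% = wells without RanGTP and RCC1; the record marks most hits as doubtful in a second field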
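Compounds preincubate 5 min with complex of recombinant Rango and importin beta in PBS with 1 mM DTT. Ran (0.6 uM) loaded with 2 mM GTP plus 0.2 uM RCC1 starts dissociation; FRET is recorded 45 min later.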
Active calls of the source: *; ? = inconclusive; . = no result given.

SMILES	miR-21 FLuc	Rango complex inh	GLA inh pH 4.5	Rango dissoc inh
COc1ccccc1CCNC(=O)c1csc2c1CCCC2	-20%	4.7%	-5	3%
Cc1cccc(C)c1NC(=O)C/C(N)=N/O	2%	4.4%	19	10%
CC(=O)Nc1cccc(C(=O)/C=C/c2cccs2)c1	10%	-0.1%	1	0%
COc1cc(N)c(Cl)cc1C(=O)OCC(=O)N1CCCC1	-2%	-0.5%	.	-4%
Cc1cccc(C(=O)NNC(=O)CCCCC(=O)NNC(=O)c2cccc(C)c2)c1	-1%	-0.5%	.	-11%
COc1ccc(/C=C2/C(=O)ON=C2C)cc1Br	0%	0.3%	.	-6%
CC(=O)N1C(C(=O)O)Cc2c([nH]c3ccccc23)C1C (centres undefined)	2%	-2.6%	.	-5%
CCOC(=O)c1c(N)sc2c1CCC(C)C2 (centres undefined)	-5%	-3.9%	-15	-2%
Cc1cc(/C=N/NC(=O)C(O)(c2ccccc2)c2ccccc2)c(C)n1-c1ccccc1	-7%	0.3%	3	-17%
N#C/C(=C\c1ccc(OCCN2CCOCC2)cc1)C(=O)Nc1ccc(S(N)(=O)=O)cc1	-3%	?	.	-15%
COc1ccc(/C(O)=C2/C(=O)C(=O)N(Cc3cccnc3)C2c2ccco2)cc1OC (centres undefined)	-1%	2.8%	-6	-13%
Fc1ccc(CSc2ncnc3sc4c(c23)CCCC4)cc1	-8%	-1.1%	8	3%
Cc1ccc(C2CCN(C(=S)Nc3cccc(Cl)c3)C2)cc1 (centres undefined)	-26%	-0.6%	-11	-1%
CCCS(=O)(=O)Nc1c(C(=O)O)[nH]c2ccccc12	-17%	0.7%	0	-2%
CCn1c(SCC(=O)Nc2nc(-c3ccccc3)cs2)nc2c1c(=O)n(C)c(=O)n2C	-5%	3.8%	-10	6%
O=C(c1ccc(S(=O)(=O)c2cccc(Cl)c2)c([N+](=O)[O-])c1)N1CCN(c2ccccn2)CC1	?	0.0%	-3	10%
Cc1cc(C(=O)COC(=O)c2ccccc2O)c(C)n1Cc1cccs1	?	-1.6%	0	0%
O=C(CCN1CCCCC1)NNC(=S)NC(=O)c1ccc(Br)cc1	-17%	-1.3%	3	6%
COc1ccc(S(=O)(=O)N2CCCC(C(=O)NCc3ccncc3)C2)cc1 (centres undefined)	16%	-0.4%	-8	1%
O=C(CS(=O)(=O)Cc1ccccc1)Nc1nc2ccccc2s1	-19%	-0.4%	-19	0%
O=S(=O)(Cc1ccccc1)NCc1cccnc1	1%	0.8%	3	21%
Cc1ccc(CCC(=O)NCc2ccccc2)o1	-1%	?	.	-13%
O=C1Nc2ccccc2/C1=N/N=C/c1ccc(-c2ccc([N+](=O)[O-])cc2)o1	2%	-2.3%	-6	-9%
COc1ccc(C2c3ccc(O)cc3Oc3ncn(Cc4ccco4)c(=N)c32)cc1 (centres undefined)	-13%	?	-5	?
CCOC(=O)N1CCN(CCC(=O)Nc2cccc(Cl)c2C)CC1	3%	-1.2%	.	8%
COc1cc(NC(C)CCc2ccccc2)cc(OC)c1OC (centres undefined)	0%	0.4%	.	1%
CC(C)Cc1ccc(C#N)c(SCC(N)=O)n1	-17%	1.4%	6	22%
NC(=O)C1=C[C@@H](c2ccc(C(F)(F)F)cc2)C[C@@H](OCCCCO)O1	-3%	-5.8%	7	28%
O=C(NCCc1cccs1)C1CC(c2cccc([N+](=O)[O-])c2)=NO1 (centres undefined)	-10%	-1.4%	-5	38%
Cc1ccc(NC(=O)C(=O)NCCN2CCN(S(C)(=O)=O)CC2)cc1	0%	-0.8%	-3	11%
O=C(Nc1ccnn1C1CCN(Cc2ccc(C#CCCO)cc2)CC1)c1cccc(F)c1	3%	0.1%	.	-8%
COc1ccc2c(c1)c(=O)cc(C)n2CC(=O)NCc1ccco1	11%	-0.9%	-9	2%
O=C(CCC1CCCC1)N1CCN(S(=O)(=O)c2ccc(Br)cc2)CC1	.	2.3%	.	-2%
COc1ccc(Cl)cc1NC(=O)CCNS(=O)(=O)c1cccc2nonc12	-3%	0.7%	.	-25%
O=C(O)CP(=O)(c1ccccc1)c1ccccc1	0%	0.3%	0	11%
Cc1ccc(-c2cc3c(nn2)-c2ccccc2C3=O)cc1	29%	-1.0%	4	13%
COc1ccc(CCNC(=O)c2cnccn2)cc1	-23%	-2.1%	-2	-10%
Cc1ccc(C(=O)c2c3ccccc3[n+]([O-])n2CCC(N)=O)cc1	-5%	1.3%	.	2%
CCCC(=O)Nc1ccc(C(=O)COC(=O)C2=COCCO2)cc1	.	?	.	-12%
Cc1ccc(NC2(C(F)(F)F)N=C(c3ccccc3)NC2=O)nc1 (centres undefined)	-4%	-0.4%	1	-12%
Cc1ccsc1C1C2=C(CCCC2=O)Nc2ncnn21 (centres undefined)	-9%	-1.8%	7	7%
Cc1ccc(NS(=O)(=O)c2ccc(C(=O)N3CCCCCCC3)cc2)cc1	-16%	-1.5%	.	-4%
Cc1nc(C(=O)NCc2ccccc2)sc1C1(C)CC(c2cccnc2)=NO1 (centres undefined)	13%	0.9%	0	-2%
Cc1onc(-c2ccccc2)c1CNC(=O)Nc1ccc(C(F)(F)F)cc1	?	3.3%	-12	8%
CCOc1ccc(NC(=O)C2CC(=O)N(Cc3ccco3)C2)cc1 (centres undefined)	.	-2.2%	.	3%
COc1ccc(C(=O)Nc2ccc3c4c(cccc24)CC3)cc1	-42%	3.0%	5	2%
N#Cc1ccc(S(=O)(=O)Nc2ccc3ccccc3n2)cc1	-18%	2.1%	1	-1%
CCC(C)C(NC(=O)c1ccccc1NC(=O)c1ccccc1)C(=O)O (centres undefined)	-2%	0.6%	6	13%
Cc1c(N)cc[n+](CC(=O)c2ccccc2)c1C	-4%	0.9%	3	2%
Cc1cc(-c2nnc(SCC(=O)Nc3ccccn3)o2)no1	-30%	2.6%	-1	-5%

Record cards, from the list above. Screens in order: miR-21 FLuc, Rango complex inh, GLA inh pH 4.5, Rango dissoc inh
Cc1nc(C(=O)NCc2ccccc2)sc1C1(C)CC(c2cccnc2)=NO1 (centres undefined) is listed as 13%, 0.9%, 0, -2%
Cc1cc(-c2nnc(SCC(=O)Nc3ccccn3)o2)no1 is listed as -30%, 2.6%, -1, -5%

Other structures follow:
SMILES	miR-21 FLuc	Rango complex inh	GLA inh pH 4.5	Rango dissoc inh
O=C(c1ccc(Br)s1)N1CCN(c2ccccn2)CC1	-11%	-3.0%	.	-12%
COc1cc(CN2CCCC(CO)(Cc3ccccc3)C2)ccc1O (centres undefined)	0%	0.4%	.	6%
COc1ccc(C2(C)NC(=O)N(CC(=O)Nc3ccc4[nH]c(=O)[nH]c4c3)C2=O)cc1 (centres undefined)	.	?	.	-25%
CSC1=NSC2=NC(=O)/C(=C\c3cccs3)C(=N)N12	-33%	?	-3	-8%
COc1ccc(CNC(=O)COC(=O)CN2C(=O)NC3(CCCC3)C2=O)cc1	.	0.8%	.	0%
Cc1cc(C2C(=O)NC(=O)C2=O)c(C)cc1Br (centres undefined)	.	2.7%	.	10%
O=C(N=Nc1c(O)[nH]c2ccccc12)c1cc(-c2cccs2)[nH]n1	-5%	-0.4%	0	10%
O=C(N/N=C/c1cccc(O)c1)c1cc2c(ccc3ccccc32)o1	2%	0.4%	.	-7%
CCC(=O)N(CCC(c1ccccc1)c1ccco1)Cc1cccs1 (centres undefined)	12%	-1.7%	10	-10%
O=c1[nH]c(=O)c2nc(-c3ccc(Cl)cc3)cnc2[nH]1	-18%	?	?	?

Reformatted with values ahead of the structure: part of the list above
miR-21 FLuc | Rango complex inh | GLA inh pH 4.5 | Rango dissoc inh | Molecule
-23% | -2.1% | -2 | -10% | COc1ccc(CCNC(=O)c2cnccn2)cc1
-5% | 1.3% | . | 2% | Cc1ccc(C(=O)c2c3ccccc3[n+]([O-])n2CCC(N)=O)cc1
. | ? | . | -12% | CCCC(=O)Nc1ccc(C(=O)COC(=O)C2=COCCO2)cc1
-4% | -0.4% | 1 | -12% | Cc1ccc(NC2(C(F)(F)F)N=C(c3ccccc3)NC2=O)nc1 (centres undefined)
-9% | -1.8% | 7 | 7% | Cc1ccsc1C1C2=C(CCCC2=O)Nc2ncnn21 (centres undefined)
-16% | -1.5% | . | -4% | Cc1ccc(NS(=O)(=O)c2ccc(C(=O)N3CCCCCCC3)cc2)cc1
13% | 0.9% | 0 | -2% | Cc1nc(C(=O)NCc2ccccc2)sc1C1(C)CC(c2cccnc2)=NO1 (centres undefined)
? | 3.3% | -12 | 8% | Cc1onc(-c2ccccc2)c1CNC(=O)Nc1ccc(C(F)(F)F)cc1
. | -2.2% | . | 3% | CCOc1ccc(NC(=O)C2CC(=O)N(Cc3ccco3)C2)cc1 (centres undefined)
-42% | 3.0% | 5 | 2% | COc1ccc(C(=O)Nc2ccc3c4c(cccc24)CC3)cc1
-18% | 2.1% | 1 | -1% | N#Cc1ccc(S(=O)(=O)Nc2ccc3ccccc3n2)cc1
-2% | 0.6% | 6 | 13% | CCC(C)C(NC(=O)c1ccccc1NC(=O)c1ccccc1)C(=O)O (centres undefined)
-4% | 0.9% | 3 | 2% | Cc1c(N)cc[n+](CC(=O)c2ccccc2)c1C
-30% | 2.6% | -1 | -5% | Cc1cc(-c2nnc(SCC(=O)Nc3ccccn3)o2)no1
-11% | -3.0% | . | -12% | O=C(c1ccc(Br)s1)N1CCN(c2ccccn2)CC1
0% | 0.4% | . | 6% | COc1cc(CN2CCCC(CO)(Cc3ccccc3)C2)ccc1O (centres undefined)
. | ? | . | -25% | COc1ccc(C2(C)NC(=O)N(CC(=O)Nc3ccc4[nH]c(=O)[nH]c4c3)C2=O)cc1 (centres undefined)
-33% | ? | -3 | -8% | CSC1=NSC2=NC(=O)/C(=C\c3cccs3)C(=N)N12
. | 0.8% | . | 0% | COc1ccc(CNC(=O)COC(=O)CN2C(=O)NC3(CCCC3)C2=O)cc1
. | 2.7% | . | 10% | Cc1cc(C2C(=O)NC(=O)C2=O)c(C)cc1Br (centres undefined)
-5% | -0.4% | 0 | 10% | O=C(N=Nc1c(O)[nH]c2ccccc12)c1cc(-c2cccs2)[nH]n1
2% | 0.4% | . | -7% | O=C(N/N=C/c1cccc(O)c1)c1cc2c(ccc3ccccc32)o1
12% | -1.7% | 10 | -10% | CCC(=O)N(CCC(c1ccccc1)c1ccco1)Cc1cccs1 (centres undefined)
-18% | ? | ? | ? | O=c1[nH]c(=O)c2nc(-c3ccc(Cl)cc3)cnc2[nH]1

Next section.
SMILES	miR-21 FLuc	Rango complex inh	GLA inh pH 4.5	Rango dissoc inh
CNC(=S)N1C2CCCC1CC(NC(=O)c1ccc(C)cc1)C2 (centres undefined)	.	0.5%	.	-2%
NC(N)=NC(N)=Nc1cccc2ccccc12	-1%	11%	7	19%
Cc1cccc(C)c1OCC(=O)NC1CC1	-1%	0.7%	.	17%
Cc1ccc2sc(NNC(=O)c3cc(=O)c4ccccc4o3)nc2c1C	-35%	-2.0%	-5	-2%
CC1Cc2ccccc2N1C(=O)COC(=O)C1=COCCO1 (centres undefined)	-8%	-0.9%	-4	26%
CC(C)(C)n1nc2c(c1NC(=O)COc1ccc3ccccc3c1)CS(=O)C2 (centres undefined)	-8%	0.5%	-7	4%
Cc1cc(OCC(=O)N[C@@H](Cc2ccccc2)c2nc3ccccc3[nH]2)ccc1Cl	-7%	-1.2%	10	1%
Cc1ccc(-n2nnnc2SCCNS(=O)(=O)c2ccccc2)cc1C	-1%	0.0%	-9	2%
COc1ccc(CC(=O)OCc2cc3cccc(C)c3[nH]c2=O)cc1	-11%	3.8%	5	-6%
CCN(Cc1ccccc1)S(=O)(=O)c1cc(C(=O)c2c(N)n(C)c(=O)n(C)c2=O)ccc1OC	-10%	?	-2	-10%
Cc1oc(C)c(C(=O)NCCCC(=O)O)c1C(=O)NCCCC(=O)O	0%	-0.9%	-4	24%

Source: PubChem

The list is partial; the hit share may differ from the screen's.
